Screening data: PubChem BioAssay, Broad Institute
UUG fidelity: yeast start codon fidelity modulation | S. cerevisiae UUG-firefly luciferase reporter, luminescence/redox ratio | activity score, % at 18.7 µM | 0.13% of 350,000 active | AID 602363;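 active = replicate mean at a twofold rise or more, about +100% in these data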;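 also: firefly luciferase made from a UUG start codon reports start codon fidelity; reporter light over untreated wells divided by growth signal over untreated wells; some hits fall short of that in this replicate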
Numbers without * were called inactive.

What do the screens show for `C[C@H]1CN([C@@H](C)CO)C(=O)c2cc(NC(=O)Cc3cn(C)c4ccccc34)ccc2O[C@H]1CN(C)Cc1ccc(Cl)c(Cl)c1`?
UUG fidelity: 8

What do the screens show for `Cc1ccccc1-c1ccc([C@@H]2[C@H](CO)N3CCCCN(S(C)(=O)=O)C[C@@H]23)cc1`?
UUG fidelity: 3

How did C[C@H](CO)N1C[C@H](C)[C@@H](CN(C)C(=O)Nc2ccc3c(c2)OCO3)Oc2ccc(NC(=O)C3CCCCC3)cc2CC1=O do in these assays?
UUG fidelity: 5

Results for Cc1noc(C)c1S(=O)(=O)Nc1cccc2c1O[C@@H](CN(C)S(C)(=O)=O)[C@@H](C)CN([C@@H](C)CO)C2=O ?
UUG fidelity: -9

What do the screens show for `O=C(C[C@H]1CC[C@H]2[C@@H](COC[C@@H](O)CN2S(=O)(=O)c2ccccc2Cl)O1)NCc1ccccc1Cl`?
UUG fidelity: 9

What do the screens show for `Cc1ccc(S(=O)(=O)N2CC[C@@H]3[C@H](CO)Nc4ccc(C#Cc5cccc(F)c5)cc4[C@@H]32)cc1`?
UUG fidelity: -5

Results for CN1c2ccc(-c3cccc(C#N)c3)cc2[C@@H]2[C@@H](CCN2C(=O)Cc2ccccn2)[C@H]1CO ?
UUG fidelity: -21

How did C[C@@H]1CN([C@@H](C)CO)C(=O)c2cc(NC(=O)Nc3ccc(C(F)(F)F)cc3)ccc2O[C@H]1CN(C)C do in these assays?
UUG fidelity: 1

What do the screens show for `COCC(=O)N1C[C@H]2[C@@H](c3ccccc31)[C@@H](CO)N2C(=O)C1CC1`?
UUG fidelity: -14

How did C/C=C/c1ccc([C@@H]2[C@@H](CO)N(C(=O)CC)[C@H]2CNC(=O)CC)cc1 do in these assays?
UUG fidelity: -1

Results for COCC(=O)Nc1ccc2c(c1)C(=O)N(C)C[C@H](OC)[C@@H](C)CN(C(=O)c1ccncc1)[C@@H](C)CO2 ?
UUG fidelity: -5

What do the screens show for `C[C@@H]1CN([C@@H](C)CO)C(=O)c2cccc(NS(=O)(=O)c3ccc(Cl)cc3)c2O[C@@H]1CN(C)Cc1ccncc1`?
UUG fidelity: -13

How did Cc1noc(C)c1NC(=O)Nc1cccc2c1O[C@H](CN(C)S(=O)(=O)c1ccc(F)cc1)[C@@H](C)CN([C@@H](C)CO)C2=O do in these assays?
UUG fidelity: 5

What do the screens show for `C[C@@H]1CN([C@H](C)CO)C(=O)c2cc(NC(=O)Nc3ccc4c(c3)OCO4)ccc2O[C@H]1CN(C)C`?
UUG fidelity: -14

How did O=C(c1ccccn1)N1CC[C@@H]2[C@H](CO)Nc3ccc(C#Cc4ccccc4)cc3[C@@H]21 do in these assays?
UUG fidelity: -2

What do the screens show for `O=C(c1cccnc1)N1C[C@H]2[C@@H](c3ccccc31)[C@@H](CO)N2C(=O)C1CCCC1`?
UUG fidelity: -11

What do the screens show for `COc1cccc(C(=O)Nc2ccc3c(c2)C(=O)N(C)[C@H]2CC[C@@H](CC(=O)N[C@H](C)c4ccccc4)O[C@@H]2CO3)c1`?
UUG fidelity: 0

Results for CC(=O)N1C[C@H]2[C@@H](c3ccccc31)[C@H](CO)N2C(=O)CC1CC1 ?
UUG fidelity: -4

Results for CCCC#Cc1ccc([C@@H]2[C@H]3CN(CC4CCOCC4)CCCCN3[C@H]2CO)cc1 ?
UUG fidelity: 12

Results for Cc1noc(C)c1NC(=O)Nc1ccc2c(c1)C(=O)N([C@H](C)CO)C[C@H](C)[C@H](CN(C)C(=O)Nc1ccc(C(F)(F)F)cc1)O2 ?
UUG fidelity: -5

How did Cc1cc(C(=O)Nc2cccc3c2O[C@H](CN(C)S(=O)(=O)c2cn(C)cn2)[C@H](C)CN([C@@H](C)CO)C3=O)n(C)n1 do in these assays?
UUG fidelity: 15

Results for O=C(Nc1ccccc1)N1CCCCN2[C@H](C1)[C@@H](c1ccc(C#CC3CC3)cc1)[C@@H]2CO ?
UUG fidelity: 38

What do the screens show for `COCC(=O)N1C[C@@H]2[C@H](c3ccccc31)[C@@H](CO)N2C(=O)c1ccncc1`?
UUG fidelity: 6

How did CO[C@H]1CN(C)C(=O)c2ccc(NC(=O)C3CCCC3)cc2OC[C@H](C)N(CC2CC2)C[C@H]1C do in these assays?
UUG fidelity: 3

What do the screens show for `C[C@H](CO)N1C[C@H](C)[C@@H](CN(C)Cc2ccc(-c3ccccc3)cc2)Oc2ccc(NC(=O)C3CC3)cc2C1=O`?
UUG fidelity: -1

What do the screens show for `O=C(C[C@H]1CC[C@H]2[C@@H](COC[C@H](O)CN2C(=O)Nc2ccc(C(F)(F)F)cc2)O1)NCCc1ccncc1`?
UUG fidelity: -10

How did C[C@H]1CN([C@@H](C)CO)C(=O)Cc2cc(NC(=O)c3ccncc3)ccc2O[C@H]1CN(C)S(=O)(=O)c1ccc(Cl)cc1 do in these assays?
UUG fidelity: -8

How did C[C@H](CO)N1C[C@H](C)[C@@H](CN(C)C(=O)Nc2cccc3ccccc23)Oc2ccc(NC(=O)Cn3cnnn3)cc2C1=O do in these assays?
UUG fidelity: 11

What do the screens show for `O=C(NC[C@H]1N[C@H](CO)[C@H]1c1ccccc1)c1ccccc1F`?
UUG fidelity: 9

What do the screens show for `COc1ccc(S(=O)(=O)N(C)C[C@@H]2Oc3ccc(NC(=O)CCC(F)(F)F)cc3CC(=O)N([C@@H](C)CO)C[C@H]2C)cc1`?
UUG fidelity: 13

How did CCC(=O)Nc1ccc2c(c1)C(=O)N(C)C[C@@H](OC)[C@H](C)CN(C(=O)CC1CC1)[C@H](C)CO2 do in these assays?
UUG fidelity: -9

How did CCNC(=O)[C@@H]1[C@@H](CO)[C@@H]2Cn3c(ccc(-c4cccc(F)c4)c3=O)[C@H]1N2C(=O)c1ccccn1 do in these assays?
UUG fidelity: 16

How did C[C@H](CO)N1C[C@H](C)[C@H](CN(C)Cc2ccc3c(c2)OCO3)Oc2ccc(NS(=O)(=O)c3ccc(F)cc3)cc2C1=O do in these assays?
UUG fidelity: 3

What do the screens show for `CN1CCCCN2[C@@H](CO)[C@H](c3ccc(-c4cccnc4)cc3)[C@@H]2C1`?
UUG fidelity: -10

What do the screens show for `Cc1noc(C)c1S(=O)(=O)Nc1cccc2c1O[C@H](CN(C)S(C)(=O)=O)[C@H](C)CN([C@H](C)CO)C2=O`?
UUG fidelity: -15

How did C[C@@H]1CN([C@H](C)CO)C(=O)c2cc(NC(=O)C3CC3)ccc2O[C@@H]1CN(C)S(=O)(=O)c1ccc(Cl)cc1 do in these assays?
UUG fidelity: 10

How did C[C@H]1CN([C@@H](C)CO)C(=O)CCCn2nncc2CO[C@@H]1CN(C)C(=O)C1CCCCC1 do in these assays?
UUG fidelity: -6

Results for COc1ccc(CN(C)C[C@@H]2Oc3ccc(NC(=O)NC(C)C)cc3CC(=O)N([C@H](C)CO)C[C@H]2C)cc1 ?
UUG fidelity: -3

Results for COc1ccc(S(=O)(=O)N(C)C[C@H]2Oc3c(NC(=O)c4ccncc4)cccc3C(=O)N([C@@H](C)CO)C[C@@H]2C)cc1 ?
UUG fidelity: -14

What do the screens show for `CC(C)C#Cc1ccc([C@H]2[C@@H](CO)N3CCCCN(C(=O)Nc4ccccc4)C[C@@H]23)cc1`?
UUG fidelity: 11

Entries above that contain two or more sulfur atoms, in the order listed:
Results for Cc1noc(C)c1S(=O)(=O)Nc1cccc2c1O[C@@H](CN(C)S(C)(=O)=O)[C@@H](C)CN([C@@H](C)CO)C2=O ?
UUG fidelity: -9

What do the screens show for `Cc1noc(C)c1S(=O)(=O)Nc1cccc2c1O[C@H](CN(C)S(C)(=O)=O)[C@H](C)CN([C@H](C)CO)C2=O`?
UUG fidelity: -15

The main list resumes with the 6 entries that preceded the break.
What do the screens show for `Cc1noc(C)c1S(=O)(=O)Nc1cccc2c1O[C@H](CN(C)S(C)(=O)=O)[C@H](C)CN([C@H](C)CO)C2=O`?
UUG fidelity: -15

How did C[C@@H]1CN([C@H](C)CO)C(=O)c2cc(NC(=O)C3CC3)ccc2O[C@@H]1CN(C)S(=O)(=O)c1ccc(Cl)cc1 do in these assays?
UUG fidelity: 10

How did C[C@H]1CN([C@@H](C)CO)C(=O)CCCn2nncc2CO[C@@H]1CN(C)C(=O)C1CCCCC1 do in these assays?
UUG fidelity: -6

Results for COc1ccc(CN(C)C[C@@H]2Oc3ccc(NC(=O)NC(C)C)cc3CC(=O)N([C@H](C)CO)C[C@H]2C)cc1 ?
UUG fidelity: -3

Results for COc1ccc(S(=O)(=O)N(C)C[C@H]2Oc3c(NC(=O)c4ccncc4)cccc3C(=O)N([C@@H](C)CO)C[C@@H]2C)cc1 ?
UUG fidelity: -14

What do the screens show for `CC(C)C#Cc1ccc([C@H]2[C@@H](CO)N3CCCCN(C(=O)Nc4ccccc4)C[C@@H]23)cc1`?
UUG fidelity: 11

How did C[C@H]1CN([C@@H](C)CO)C(=O)Cc2cc(NC(=O)C3CCCCC3)ccc2O[C@@H]1CN(C)S(=O)(=O)c1ccc(F)cc1 do in these assays?
UUG fidelity: -3

Results for CCCNC(=O)Nc1ccc2c(c1)C(=O)N(C)C[C@@H](OC)[C@@H](C)CN(C(=O)C1CCOCC1)[C@@H](C)CO2 ?
UUG fidelity: -7

What do the screens show for `C/C=C/c1ccc([C@@H]2[C@@H](CNC(C)=O)N(C(=O)Cc3cccnc3)[C@H]2CO)cc1`?
UUG fidelity: 0

What do the screens show for `CCS(=O)(=O)N1CCCCN2[C@H](C1)[C@@H](c1ccc(C#Cc3ccccn3)cc1)[C@@H]2CO`?
UUG fidelity: 49

How did O=C(c1ccc2c(c1)OCO2)N1C[C@H]2[C@@H](c3ccccc31)[C@H](CO)N2CC1CCCC1 do in these assays?
UUG fidelity: 8

Results for O=C(Nc1ccc2c(c1)[C@@H]1C[C@H](CC(=O)N3CCOCC3)O[C@@H](CO)[C@@H]1O2)NC1CCCC1 ?
UUG fidelity: 2

What do the screens show for `O=C(C[C@H]1CC[C@@H]2[C@H](COC[C@H](O)CN2C(=O)Nc2ccccc2)O1)NCCc1ccncc1`?
UUG fidelity: -11

How did Cc1noc(C)c1S(=O)(=O)N(C)C[C@H]1Oc2c(NC(=O)c3ccc(-c4nccs4)cc3)cccc2C(=O)N([C@@H](C)CO)C[C@H]1C do in these assays?
UUG fidelity: -6

What do the screens show for `C[C@H](CO)N1C[C@H](C)[C@H](CN(C)S(=O)(=O)c2ccccc2)Oc2ccc(NC(=O)NC3CCCCC3)cc2C1=O`?
UUG fidelity: -3

What do the screens show for `Cc1cccc(S(=O)(=O)N2CCCCN3[C@H](CO)[C@@H](c4ccc(C#CC5CC5)cc4)[C@H]3C2)c1`?
UUG fidelity: 3

What do the screens show for `COc1ccccc1-c1ccc([C@H]2[C@@H](CO)N3CCCCN(C(=O)c4ccncc4)C[C@@H]23)cc1`?
UUG fidelity: -2

How did Cn1cnc(S(=O)(=O)N2C[C@H](O)COC[C@H]3O[C@H](CC(=O)NCc4cc(F)cc(F)c4)CC[C@@H]32)c1 do in these assays?
UUG fidelity: -12

Results for CS(=O)(=O)Nc1ccc2c(c1)[C@H]1C[C@@H](CC(=O)NCc3ccccc3F)O[C@@H](CO)[C@H]1O2 ?
UUG fidelity: -12

What do the screens show for `COC(=O)C[C@H]1CC[C@@H]2[C@@H](COc3ccc(NC(=O)c4cc(C)on4)cc3C(=O)N2C)O1`?
UUG fidelity: 15

Results for C[C@@H]1CN([C@@H](C)CO)C(=O)c2cccc(NS(=O)(=O)c3ccccc3)c2O[C@@H]1CN(C)CC1CC1 ?
UUG fidelity: 9

How did COCC(=O)Nc1ccc2c(c1)C(=O)N(C)C[C@@H](OC)[C@@H](C)CN(CC1CC1)[C@H](C)CO2 do in these assays?
UUG fidelity: -6

What do the screens show for `COc1cccc(S(=O)(=O)N2C[C@H](O)COC[C@H]3O[C@@H](CC(=O)N4CCOCC4)CC[C@@H]32)c1`?
UUG fidelity: -3

How did COc1cccc(-c2ccc3c(c2)[C@@H]2[C@@H](CCN2S(=O)(=O)c2ccc(F)cc2)[C@@H](CO)N3C)c1 do in these assays?
UUG fidelity: 10

Results for C[C@@H]1CN([C@@H](C)CO)C(=O)Cc2cc(NS(=O)(=O)c3ccccc3)ccc2O[C@@H]1CN(C)Cc1ccc2c(c1)OCO2 ?
UUG fidelity: -14

What do the screens show for `O=C(CC(F)(F)F)N1C[C@@H]2[C@H](c3ccccc31)[C@H](CO)N2C(=O)Cc1cccnc1`?
UUG fidelity: 26

Results for C[C@H](CO)N1C[C@H](C)[C@H](CN(C)C(=O)Nc2cccc3ccccc23)Oc2c(NC(=O)Nc3ccccc3)cccc2C1=O ?
UUG fidelity: 7

How did C[C@H]1CN([C@@H](C)CO)C(=O)c2cc(NC(=O)Nc3ccc4c(c3)OCO4)ccc2O[C@H]1CN(C)S(C)(=O)=O do in these assays?
UUG fidelity: -9

How did CNC[C@@H]1Oc2ccc(NS(=O)(=O)c3ccc(OC)cc3)cc2C(=O)N([C@@H](C)CO)C[C@@H]1C do in these assays?
UUG fidelity: 5

Results for CC(=O)N1CC[C@@H]2[C@H]1c1cc(-c3cccc(F)c3)ccc1N(C)[C@@H]2CO ?
UUG fidelity: 2

How did C[C@H]1CN([C@@H](C)CO)C(=O)c2cccc(NC(=O)Nc3ccc(C(F)(F)F)cc3)c2O[C@H]1CN(C)S(=O)(=O)c1cn(C)cn1 do in these assays?
UUG fidelity: 3

What do the screens show for `C[C@H]1CN([C@@H](C)CO)C(=O)c2cccc(NS(C)(=O)=O)c2O[C@H]1CN(C)C(=O)Nc1ccccc1`?
UUG fidelity: -10

What do the screens show for `CC(=O)N(C[C@@H]1N[C@@H](CO)[C@@H]1c1ccc(-c2ccccc2)cc1)C(C)C`?
UUG fidelity: 19

Results for COc1ccc(S(=O)(=O)N(C)C[C@@H]2Oc3ccc(NC(=O)NC4CCCCC4)cc3C(=O)N([C@@H](C)CO)C[C@@H]2C)cc1 ?
UUG fidelity: -2

What do the screens show for `COc1cccc(-c2ccc3c(c2)[C@@H]2[C@@H](CCN2C(=O)c2ccccc2F)[C@H](CO)N3C)c1`?
UUG fidelity: -14

What do the screens show for `CCCNC(=O)N1C[C@@H]2[C@H](c3ccccc31)[C@H](CO)N2C(=O)NC(C)C`?
UUG fidelity: -11

An excerpt; rates above refer to the full screens.
